Screening results: PubChem, National Center for Advancing Translational Sciences (NCATS)
VDR inh – vitamin D3 receptor (human) inhibition. Potency, µM, for the others: max response, negative = inhibition, usual class: inhibitors. AID 504847. actives 0.93% (n = 400,000). VDR-SRC2-3 peptide fluorescence polarization, 2 h; active = well fitted inhibition curve with a large enough effect; note: series mostly up to about 120 µM
Target sequence (P11473 whole entry, looked up): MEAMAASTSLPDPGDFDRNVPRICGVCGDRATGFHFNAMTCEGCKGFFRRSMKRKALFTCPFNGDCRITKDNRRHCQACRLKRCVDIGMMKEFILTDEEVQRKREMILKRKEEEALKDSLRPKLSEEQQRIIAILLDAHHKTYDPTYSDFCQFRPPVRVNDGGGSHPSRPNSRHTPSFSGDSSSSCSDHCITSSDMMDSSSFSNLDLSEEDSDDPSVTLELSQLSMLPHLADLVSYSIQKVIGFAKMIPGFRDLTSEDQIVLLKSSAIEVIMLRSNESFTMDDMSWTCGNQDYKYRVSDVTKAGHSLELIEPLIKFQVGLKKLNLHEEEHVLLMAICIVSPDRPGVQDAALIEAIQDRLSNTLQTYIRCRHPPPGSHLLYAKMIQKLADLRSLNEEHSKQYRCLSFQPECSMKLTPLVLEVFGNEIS
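VDR–SRC2-3 interaction, FP format. Cmpds 23 nl via pintool, brief spin, 2 h ambient incubation.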
An asterisk follows results filed as active; & = joins results of further samples. % is set by controls: 0 for no effect and ±100 for the full control effect; potency is the fitted concentration of half-maximal effect.

CCCOc1cccc(C2c3c(oc4ccc(F)cc4c3=O)C(=O)N2c2nc(C)c(C(C)=O)s2)c1 (stereo not drawn) was read as VDR inh 15%.
For CSc1nnc(N2C(=O)C(O)=C(C(=O)c3ccco3)C2c2ccc(F)cc2)s1 (stereo not drawn) the results were VDR inh 3%.
Screening N#Cc1c(N)oc(-c2cccs2)c1-c1cccs1 returned VDR inh 14%.
`O=C(OCC(=O)N1CCc2ccccc2C1)c1cccc([N+](=O)[O-])c1` gave VDR inh -15%.
For O=C(OCC(=O)N1CCN(c2ccccc2)CC1)c1cc(Br)ccc1Cl the results were VDR inh -4%.
C/C(=N\NC(=O)Cc1cccn1C)c1cccs1 was read as VDR inh -5%.
For O=C(CN1CCN(c2cccc(Cl)c2)CC1)Nc1nccs1 the results were VDR inh 28%.
`CN1CCN(c2nc(-c3cccs3)nc3ccccc23)CC1` gave VDR inh -4%.
Screening O=C(NCCCCCCCN1CCCCCCC1)C(C1CCCCC1)C1CCCCC1 returned VDR inh -21%.
Screening O=C(NNC(=O)c1csc(N2CCOCC2)n1)c1ccc(=O)[nH]c1 returned VDR inh 1%.
For COc1ccc(OCCC(=O)OCC(=O)NC2CCCCC2)cc1 the results were VDR inh -18%.
CCOC(=O)C1(Cc2ccccc2Cl)CCN(C(=O)c2cc(C)on2)CC1 was read as VDR inh 15%.
`O=C(c1ccc(C(F)(F)F)cc1)N1CCC(=O)N(C(COCc2ccc(C(F)(F)F)cc2)Cc2ccccc2)CC1` (stereo not drawn) gave VDR inh -3%.
`CCOC(=O)c1cc2sccc2n1CC(=O)Nc1ccc(OC)cc1OC` gave VDR inh 18%.
Screening O=C1CC(=O)Nc2cc(S(=O)(=O)N3CCN(c4ccc([N+](=O)[O-])cc4)CC3)ccc2N1 returned VDR inh -7%.
`CCc1ccnc(NC(=O)NS(=O)(=O)c2ccc(C)cc2)c1` gave VDR inh -30%.
For CC(NC(=O)CN(C)CC(=O)Nc1ccccc1Br)c1ccccc1 (stereo not drawn) the results were VDR inh 7%.
Screening CC(C)(C)OC(=O)NCCCC[C@H](NC(=O)c1nc[nH]c1C(=O)NCC(=O)OCc1ccccc1)C(=O)OC(C)(C)C returned VDR inh -7%.
`COC(=O)c1sccc1NC(=O)c1cccnc1` gave VDR inh -3%.
`CC(NC(=O)CCNS(=O)(=O)c1cccc2nonc12)c1ccccc1` (stereo not drawn) gave VDR inh 6%.
Screening Cc1ccc(C(=O)Nc2cccc(O)c2)cc1S(=O)(=O)N1CCCCCC1 returned VDR inh 16%&-20%.
For O=C(NC1=NCCS1)C1CCCCC1 the results were VDR inh -12%.
`Cc1cc(NS(=O)(=O)c2ccc(-c3ccccc3)cc2)no1` gave VDR inh -16%.
Screening C=CCn1c(-c2ccc([N+](=O)[O-])cc2)n[nH]c1=S returned VDR inh -15%.
`O=C(O)[C@@H]1CCCN1C(=O)CCc1c[nH]c2ccccc12` gave VDR inh 0%.
Screening COCCNC(=O)C(=O)c1cc(C)n(-c2ccc([N+](=O)[O-])cc2)c1C returned VDR inh -8%.
Cc1ccc(S(=O)(=O)N2[C@@H](c3ccccc3F)C(C(=O)O)=CC[C@H]2c2ccc3c(c2)OCO3)cc1 was read as VDR inh 2%.
O=C(c1cccs1)N1CCN(c2cccc(Cl)c2)CC1 was read as VDR inh -7%.
Screening O=C(CCCn1c(=O)c2cccn2c2ccccc21)NCCc1ccc(Cl)cc1 returned VDR inh 0%.
`Cc1cc(C)cc(C(=O)NCC(=O)OCC(=O)Nc2cccnc2Cl)c1` gave VDR inh 4%.
Cc1c(NC(=O)COC(=O)Cc2ccc(Cl)cc2)c(=O)n(-c2ccccc2)n1C was read as VDR inh 12%.
Screening CC(C)c1noc(-c2ccccc2OCC(=O)Nc2ccc([N+](=O)[O-])cc2)n1 returned VDR inh -2%.
For O=c1cc(CSc2nc(NCc3ccc(Cl)cc3)c3ccccc3n2)nc2ccc(Cl)cn12 the results were VDR inh 20%.
`Cc1ccc(NC(=O)c2ccccn2)cc1S(=O)(=O)N1CCOCC1` gave VDR inh -10%.
For O=C(O)CCC(=O)OC1CC2CCC1C2 (stereo not drawn) the results were VDR inh -9%.
For CCc1cc(C(=O)O)c(NC(=O)C(c2ccccc2)c2ccccc2)s1 the results were VDR inh -1%.
O=C1NC(c2ccco2)Nc2sc3c(c21)CCN(Cc1ccccc1)C3 (stereo not drawn) was read as VDR inh -23%.
For O=C(CCCOc1ccc(Cl)cc1Cl)NCc1ccncc1 the results were VDR inh -12%.
Screening CCOC(=O)c1cc(S(=O)(=O)NCCc2ccc(OC)c(OC)c2)cn1C returned VDR inh -7%.
`C[C@@H]1CN([C@@H](C)CO)C(=O)c2cccc(NC(=O)Nc3ccc(F)cc3)c2O[C@@H]1CN(C)Cc1ccc(Oc2ccccc2)cc1` gave VDR inh 0%.

Random excerpt: 3 compounds from above
`O=C(O)[C@@H]1CCCN1C(=O)CCc1c[nH]c2ccccc12` gave VDR inh 0%.
For O=C(CCCOc1ccc(Cl)cc1Cl)NCc1ccncc1 the results were VDR inh -12%.
`Cc1cc(C)cc(C(=O)NCC(=O)OCC(=O)Nc2cccnc2Cl)c1` gave VDR inh 4%.

The listing picks up with the three entries that preceded the break.
For O=C(CCCOc1ccc(Cl)cc1Cl)NCc1ccncc1 the results were VDR inh -12%.
Screening CCOC(=O)c1cc(S(=O)(=O)NCCc2ccc(OC)c(OC)c2)cn1C returned VDR inh -7%.
`C[C@@H]1CN([C@@H](C)CO)C(=O)c2cccc(NC(=O)Nc3ccc(F)cc3)c2O[C@@H]1CN(C)Cc1ccc(Oc2ccccc2)cc1` gave VDR inh 0%.
Screening CC(=O)N[C@H]1[C@@H](O[C@@H](C)C(=O)O)[C@H](O)[C@H](CO)O[C@@H]1O returned VDR inh -3%.
`COc1ccc(C)cc1NC(=O)CSc1nc(=O)n(Cc2cccnc2)c2c1CCC2` gave VDR inh 11%.
COCCCN(C(=S)NC(=O)c1ccc(C(C)(C)C)cc1)c1c(N)n(Cc2ccccc2)c(=O)[nH]c1=O was read as VDR inh 1%.
Cc1cccc(N(C(=O)Cn2nnc3ccccc32)C(C(=O)NCc2ccco2)c2ccncc2)c1C (stereo not drawn) was read as VDR inh -11%.
Screening Cc1c(Cl)cccc1NC(=O)CCN1CCN(C)CC1 returned VDR inh -9%.
Screening Cn1c(CNc2cccc(Cl)c2)nnc1SCC(=O)OC1CCCCC1 returned VDR inh 2%.
For COCCn1c(SCC(=O)NC2CCCCC2)nnc1-c1ccncc1 the results were VDR inh 6%.
Screening COc1cc(/C=N/NC(=O)C2CC(=O)N(c3ccc(C)cc3)C2)cc(OC)c1OC (stereo not drawn) returned VDR inh -4%.
For COCCCNC(=O)c1ccc2c(=O)n(Cc3ccc4c(c3)OCO4)c(=S)[nH]c2c1 the results were VDR inh 7%.
Screening Nc1nc(-c2ccc(F)cc2)cc(C(F)(F)F)n1 returned VDR inh -10%.
COc1ccc(CC(CC(=O)O)C(=O)Nc2ccc(OC)cc2)cc1 (stereo not drawn) was read as VDR inh -2%.
For COC(=O)Cc1c(O)ccn(CCc2ccc(OC)c(OC)c2)c1=O the results were VDR inh -16%.
Nc1ccc(Nc2ccncc2[N+](=O)[O-])cc1 was read as VDR inh 16%.
CCOC(=O)C1CCN(C(=O)C2CCN(C(=O)c3ccc([N+](=O)[O-])cc3)CC2)CC1 was read as VDR inh 6%.
For CN(CC(=O)NCc1ccc(Cl)cc1)S(=O)(=O)c1cccc2cccnc12 the results were VDR inh -6%.
For CC(C)(C)OC(=O)C(C)(C)Sc1nnc(N)s1 the results were VDR inh -14%.
`CCc1ccc(NC(=O)CN2C(=O)CSC2=O)cc1` gave VDR inh 9%.
Screening CCOC(=O)c1c(C)[n+]([O-])c2ccc3c(non3O)c12 returned VDR inh 1%.
Screening Cc1noc(C)c1CSCC(=O)N1CCN(c2ccc([N+](=O)[O-])cc2)CC1 returned VDR inh 7%.
For CC1CCCCN1S(=O)(=O)c1ccc(C(=O)Nc2ccccc2-c2nc3ccccc3s2)cc1 (stereo not drawn) the results were VDR inh -1%.
For O=C(CC(c1cccs1)N1Cc2ccccc2C1=O)Nc1ccccc1F (stereo not drawn) the results were VDR inh -4%.
`COc1ccccc1NC(=O)C1CC(O)CN1C(=O)Oc1ccccc1` (stereo not drawn) gave VDR inh -1%.
COc1ccc(N2CC(C(=O)N/N=C/c3cc([N+](=O)[O-])ccc3O)CC2=O)cc1 (stereo not drawn) was read as VDR inh 3%.
For Cc1ccc(-c2nc3ncccn3c2Nc2ccc3c(c2)OCO3)o1 the results were VDR inh -19%.
Screening Cc1ccc(C)c(-n2c(-c3ccc4c(c3)OCO4)n[nH]c2=S)c1 returned VDR inh -7%.
For CCN(CC)CCSc1c(C(C)C)cnc2c1c(=O)n(C)c(=O)n2C the results were VDR inh 18%.
Screening O=C1C2C3C=CC(C3)C2C(=O)N1c1ccccc1OS(=O)(=O)c1ccccc1 (stereo not drawn) returned VDR inh -11%.
For CCOC(=O)C1(C)NC(c2cccs2)C2C(=O)N(c3ccccc3)C(=O)C21 (stereo not drawn) the results were VDR inh -12%.
For Cc1cc(C)n(-c2nc3cc(Cl)c(Cl)cc3nc2Nc2ccc(F)cc2C)n1 the results were VDR inh -21%.
COc1cc2c(cc1OC)C(c1ccc(Cl)cc1)=NCC2 was read as VDR inh -8%.
CC(C)C[C@@H](CC(=O)N[C@@H](CCC(=O)O)CC(=O)O)NC(=O)[C@@H]1CCCC[C@H]1NC(=O)C[C@@H](NC(=O)C[C@H](CO)NC(=O)[C@@H]1CNCC[C@H]1N)C(C)C was read as VDR inh -2%.
Screening CC(C)CC(=O)NNC(=O)c1ccc(Cl)cc1 returned VDR inh 3%.
Screening COc1ccc(C(O)c2nccc3cc(OC)c(OC)cc23)cc1OC (stereo not drawn) returned VDR inh -18%.
`Cc1ccccc1-c1cc(C(=O)NCc2cccc(Br)c2)n(CC2CC(c3cccnc3)=NO2)n1` (stereo not drawn) gave VDR inh -34%.
`CC(C)Cc1nnc(NC(=O)CCC(=O)NCCc2ccc(Cl)cc2)s1` gave VDR inh -29%.
`C[C@H]1C=C2C=C[C@H](C)[C@H](CC[C@@H]3C[C@@H](O)CC(=O)O3)[C@H]2[C@@H](OC(=O)[C@@H](C)CCO)C1` gave VDR inh -27%.
`O=C(NC1CCC(=O)N(CCOc2ccccc2)CC1)OCc1ccccc1` (stereo not drawn) gave VDR inh -14%.
Screening COC(=O)CC1C(=O)NCCN1C(=O)c1c(F)cccc1F (stereo not drawn) returned VDR inh -8%.
`Cc1nc2ccc(NC(=O)c3cncc(Br)c3)cc2s1` gave VDR inh 18%.
`COc1ccc(-c2ccc(NS(=O)(=O)c3ccc(OC)c(OC)c3)cc2)nn1` gave VDR inh 15%.
Screening O=C(Nc1ccccc1)OCCOc1ccc(Br)cc1 returned VDR inh 5%.
`COc1ccccc1NC(=O)Cc1csc(NC(=O)c2ccccc2)n1` gave VDR inh 0%.
`Cc1oc2c(c(C)cc3oc(=O)c(CC(=O)NCc4ccccc4)c(C)c32)c1C` gave VDR inh 6%.
For COC(=O)c1ccc(CS(=O)(=O)c2ccc(F)cc2)o1 the results were VDR inh -5%.
COc1ccc(C(=O)O)cc1S(=O)(=O)Nc1ccccc1Cc1ccccc1 was read as VDR inh -15%.
For CN1C(=O)NC(c2cccc([N+](=O)[O-])c2)C2=C1CC(C)(C)CC2=O (stereo not drawn) the results were VDR inh 2%.
Screening N#Cc1c(C(F)(F)F)cc(-c2ccc(Cl)cc2)[nH]c1=O returned VDR inh -17%.
For CCOC(=O)c1cc(CC)sc1NC(=O)C1CC(=O)NN1Cc1ccccc1 (stereo not drawn) the results were VDR inh -12%.
Screening COc1ccc(NC(=O)C2CC(=O)OC2c2ccccc2)cc1 (stereo not drawn) returned VDR inh -13%.
`O=C(NC(=S)N1CCN(c2ccc(O)cc2)CC1)c1ccco1` gave VDR inh -10%.
For Cc1noc(C(=O)Nc2cccnc2Cl)c1Cl the results were VDR inh -4%.
COc1ccc(OC)c(NC(=O)NCCCCc2ccccc2)c1 was read as VDR inh 1%.
Screening CCCCN(CC)CCCNC(=O)c1ccc(CS(=O)(=O)c2c(Cl)cccc2Cl)o1 returned VDR inh 3%.
`CN(CC(=O)Nc1cccc2ccccc12)C(=O)c1ccc(NC(=O)CC#N)cc1` gave VDR inh 1%.
`COc1ccc(NC(=O)c2cccn2-c2nnc(N3CCCCC3)s2)cc1` gave VDR inh 12%.
`COc1ccccc1NC(=O)C(=O)NCCC1CCCCN1S(=O)(=O)c1ccc(F)cc1` (stereo not drawn) gave VDR inh -14%.
`COc1cccc(CNC(=O)CCS(=O)(=O)c2ccc3c(c2)CC(C)N3C(=O)C2CC2)c1` (stereo not drawn) gave VDR inh -12%&7%.
For Cc1cccc(C)c1NS(=O)(=O)c1ccc(-c2cnc(C3CC3)o2)cc1 the results were VDR inh -7%.
`O=C(COc1ccccc1Cl)NCc1ccco1` gave VDR inh -12%.
COc1ccc(N2CC(C(=O)OCC(=O)c3ccccc3)CC2=O)cc1 (stereo not drawn) was read as VDR inh -4%.
`CC(=O)N1CCN(c2ccccc2NC(=O)COc2cc(C)ccc2C(C)C)CC1` gave VDR inh -3%.

Of the compounds above, 7 contain an aryl thioether with sulfur outside any ring.
For CSc1nnc(N2C(=O)C(O)=C(C(=O)c3ccco3)C2c2ccc(F)cc2)s1 (stereo not drawn) the results were VDR inh 3%.
For O=c1cc(CSc2nc(NCc3ccc(Cl)cc3)c3ccccc3n2)nc2ccc(Cl)cn12 the results were VDR inh 20%.
`COc1ccc(C)cc1NC(=O)CSc1nc(=O)n(Cc2cccnc2)c2c1CCC2` gave VDR inh 11%.
Screening Cn1c(CNc2cccc(Cl)c2)nnc1SCC(=O)OC1CCCCC1 returned VDR inh 2%.
For COCCn1c(SCC(=O)NC2CCCCC2)nnc1-c1ccncc1 the results were VDR inh 6%.
For CC(C)(C)OC(=O)C(C)(C)Sc1nnc(N)s1 the results were VDR inh -14%.
For CCN(CC)CCSc1c(C(C)C)cnc2c1c(=O)n(C)c(=O)n2C the results were VDR inh 18%.

An excerpt; count on the stated rates, not on these rows.
